Compound activity from PubChem.
NPYLR7 ag – agonists of mosquito NPYLR7 receptor, primary screen, cell-based, Aedes aegypti, calcium fluorescence, mosquito biting behavior; HEK293T NPYLR7/Galpha15, GCaMP6s calcium fluorescence; AID 1259423, 2018; Aedes aegypti neuropeptide Y-like receptor 7 (NPYLR7); actives 0.15% (n = 270,000); activation, % at 10 µM; in the data active = activation above about 40%;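 also: 0% = vehicle and 100% = reference agonist at the receptor; some compounds past the cut are filed as inactive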
NPYLR7 ag max-min – recorded beside NPYLR7 ag, whose call it bears; activation, %; measured here: Max-Min RFU normalised activation; some inactives read as strong as hits;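 span of the calcium signal over five minutes; 0% = vehicle and 100% = native peptide agonist; compound fluorescence can raise it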
* marks the source's active call; other numbers are inactive results; & = joins results of further samples. An excerpt, so the mix of outcomes need not match the whole.

no.	compound	NPYLR7 ag	NPYLR7 ag max-min
1	COc1ccccc1N1CCN(C(=O)c2cc3n(n2)CCN(Cc2ccc(Cl)cc2)C3=O)CC1	15	0
2	COC(=O)c1ccc(F)cc1S(=O)(=O)N(C)c1ccccc1	7	3
3	Nc1cc(-c2cccc(Cl)c2)nn1-c1ccc(C(=O)NCCc2ccc(O)cc2)cc1	-5	-13
4	Cc1nc(NC(=O)C2CC23c2ccccc2-c2ccccc23)n[nH]1 (stereo not given)	-4	-10
5	C=CCN(CC(=O)N1CCc2sccc2C1c1ccc(F)cc1)S(=O)(=O)c1cccc(C(F)(F)F)c1 (stereo not given)	14	13
6	CCN(CC)C(=O)Oc1ccc2c(ccn2Cc2ccccc2Br)c1-c1ccc(C#N)cc1	-1	-4
7	Cn1c(C(=O)NC2CCCCC2)cc2c(=O)n3ccccc3nc21	3&14	2&9
8	CCC(=O)C1=C(c2ccc(OC)cc2)N(C(=O)CC)n2c(CC)nnc2S1	7	6
9	COCCN1Cc2c(n(CC(=O)O)c3cc(C(C)(C)C)nn3c2=O)C1=O	-6	-8
10	CC1CCc2c(sc3nc[nH]c(=S)c23)C1 (stereo not given)	1&2	8&1
11	CC1CN(C(=O)Cn2cc(SCC(=O)NC(C)(C)C)c3ccccc32)CC(C)O1 (stereo not given)	-3	-7
12	C=CC[C@@H]1CC=C[C@@H](C)N1Cc1nc(Cc2cccc(F)c2)no1	18	6
13	CCCN1CCC(N(C)C(=O)Nc2ccc(OC(F)F)cc2)CC1	3	1
14	COc1ccc2nc(N(CCN3CCOCC3)C(=O)c3cc(C)no3)sc2c1	4	12
15	CCOC(=O)c1ccc2c(c1)nc(SCC(=O)NCc1ccccn1)n2Cc1cccc(F)c1	4	6
16	Cc1c(Nc2nc3nonc3nc2Nc2ccc(I)cc2)c(=O)n(-c2ccccc2)n1C	-4	-2
17	CN(C)S(=O)(=O)c1ccc(-c2csc(NC(=O)c3cc[nH]c(=O)c3)n2)cc1	1	-155
18	Cc1ncc(CN2CCCC(CNS(=O)(=O)c3cccc4cccnc34)C2)s1 (stereo not given)	11	3
19	Cc1cccnc1C(NC(=O)C1CCN(CCc2ccc(Br)cc2)CC1)c1ccc(F)cc1 (stereo not given)	7	9
20	O=C(COc1nc(-c2ccccc2)c2cc(Br)ccc2n1)N=Nc1c(O)[nH]c2ccc(Br)cc12	2	4
21	CN(C)C(=O)CSc1nnc(-c2cccnc2)n1-c1ccc(Cl)c(Cl)c1	7	13
22	Clc1cccc(Cl)c1NC1=NCCN1	-4&-5&-3&6	-8&-14&-6&-15
23	CCc1nc(-c2nc3c([nH]2)CC(c2ccc(Cl)cc2)CNC3=O)no1 (stereo not given)	-1	6
24	O=C(Nc1ccc(F)cc1F)c1ccc(S(=O)(=O)N2CCCCC2)cc1	-7	-12
25	O=S(=O)(Nc1ccncc1)c1c(Cl)cccc1C(F)(F)F	10	5
26	CCc1ccc(-c2nccn2CCc2ccccn2)nc1	10	1
27	CC12CCC(CC1=NN=Cc1ccc(Br)cc1)C2(C)C (stereo not given)	9	3
28	c1cc(-c2ccc3cc[nH]c3c2)c2ccncc2c1	17	4
29	Cc1nn(C)c(Cl)c1S(=O)(=O)N1CCN2CCN(C)CC2C1 (stereo not given)	13	9
30	NC1=NC2(CCCCC2)N=C(Nc2ccc(F)c(F)c2)N1	23	16

Full records, looked up by structure.
Record of O=C(Nc1ccc(F)cc1F)c1ccc(S(=O)(=O)N2CCCCC2)cc1 → NPYLR7 ag = -7; NPYLR7 ag max-min = -12
Record of c1cc(-c2ccc3cc[nH]c3c2)c2ccncc2c1 → NPYLR7 ag = 17; NPYLR7 ag max-min = 4

Later entries:
no.	compound	NPYLR7 ag	NPYLR7 ag max-min
31	Cc1ccc(-c2nc(C=Nc3cc(Cl)ccc3Cl)c(O)o2)cc1	-1	-5
32	O=C1c2ccccc2NC(c2cn[nH]c2-c2ccccc2)N1Cc1cccs1 (stereo not given)	-1	-1
33	CC(C)C(C)NC(=O)CCn1cnc2sc3c(c2c1=O)CCCC3 (stereo not given)	-8	-9
34	CCc1cc(-c2ccc(C(C)N3CCOCC3)cc2)ccc1NC(C)=O (stereo not given)	27	17
35	CN(C)S(=O)(=O)c1ccc(OCCSc2nnc(C3CC3)n2C2CC2)cc1	0	-1
36	CCOc1ccccc1C(=O)Nc1ccc(N2CCN(C(=O)c3sccc3C)CC2)nc1	-19	-18
37	Cc1nc(=S)[nH]c(C)c1CCC(=O)NCc1nc2ccccc2[nH]1	8	6
38	O=C(Nc1ccc(Oc2ccccc2)nc1)C1CCN(Cc2ccc3c(c2)CCO3)CC1	10&-1	6&-2
39	COC(=O)C(Cc1ccccc1)NC(=O)CCC(=O)N1CCc2ccccc2C1 (stereo not given)	2	1
40	CCc1c(-c2ccccc2)[n+](=O)c(-c2ccc(F)cc2)c(C)n1[O-]	-5	-8

Individual results from the entries so far.
Reading for compound 32 under NPYLR7 ag: -1
Reading for compound 35 under NPYLR7 ag: 0
Reading for compound 36 under NPYLR7 ag: -19
Reading for compound 33 under NPYLR7 ag max-min: -9

Next part
no.	compound	NPYLR7 ag	NPYLR7 ag max-min
41	CNc1cncc(-c2cccc(CO)c2)n1	2	-1
42	COc1cccc(OC)c1-c1c(-c2ccccc2)ncn1CC1(CO)CCC1	7	6
43	O=C(CSc1ncccn1)Nc1ccc(Br)cc1	-4	-7
44	CCS(=O)(=O)Oc1ccccc1CN(C(=O)CC(C)(C)C)C1CC1	22	21
45	COc1cccc(C(C)N(C)Cc2nc(COc3ccccc3)no2)c1 (stereo not given)	-3	-5
46	COc1ccc(C2c3ccsc3CCN2CC(=O)N2CCN(C(=O)c3cc(C(F)(F)F)cc(C(F)(F)F)c3)C(C)C2)cc1 (stereo not given)	-25	-14
47	CCCNS(=O)(=O)Nc1ncnc(OCCOc2ncc(Br)cn2)c1-c1ccc(Br)cc1	23	9
48	Cc1c(C)c2c(c(C)c1O)CCC(C)(CCCC(C)CCCC(C)CCCC(C)C)O2 (stereo not given)	2	-10
49	COCCn1c(SCCN2CCOCC2)nc2c1c(=O)[nH]c(=O)n2C	-1	-2
50	CC1(C)OCC(CN2C(=O)c3ccccc3NC2c2ccc(OCc3c(F)cccc3Cl)cc2)O1 (stereo not given)	0	0

Random excerpt: 3 compounds from above, in no set order.
no.	compound	NPYLR7 ag	NPYLR7 ag max-min
42	COc1cccc(OC)c1-c1c(-c2ccccc2)ncn1CC1(CO)CCC1	7	6
45	COc1cccc(C(C)N(C)Cc2nc(COc3ccccc3)no2)c1 (stereo not given)	-3	-5
50	CC1(C)OCC(CN2C(=O)c3ccccc3NC2c2ccc(OCc3c(F)cccc3Cl)cc2)O1 (stereo not given)	0	0

The list continues.
no.	compound	NPYLR7 ag	NPYLR7 ag max-min
51	O=C(CN1CN(c2ccccc2)C2(CCN(C(=O)c3ccc(Br)cc3)CC2)C1=O)NCCc1ccccc1	3	6
52	COc1cc(=O)n(-c2ccccc2C)nc1C(=O)NCC(OC)OC	0	-4
53	Cc1ccccc1C(=O)N[C@@H]1CCCCC1NC(=O)C1CCN(C(=O)c2ccccc2F)CC1 (stereo not given in full)	2	6
54	C=CCn1c(SCC(C)=O)nc2sc3c(c2c1=O)CCC3	4	0
55	CN1CCOc2cc(C(=O)N(C)[C@@H]3CS(=O)(=O)C[C@H]3O)ccc21	19	17
56	CCc1ccccc1NC(=O)c1c(NC(=O)c2cccs2)sc2c1CCCC2	-4	-6
57	Cc1cc(NC(=O)C2=COCCO2)n(-c2nc3ccccc3s2)n1	-10	-17
58	COc1ccc(CN2CCCN(c3cc(NC(=O)c4ccccc4)ccc3OC)C2=O)cc1	5	-1
59	CCCCCCCn1c(CN2CCOCC2)nc2c1c(=O)n(C)c(=O)n2C	-14	-14
60	COC(=O)Oc1ccc2oc(=S)sc2c1	15	7
61	O=C(c1ccc(C(F)(F)F)cc1)N1CCCC(OCc2ccc(F)c(F)c2)C1 (stereo not given)	-1	0
62	CC(=O)Nc1ccsc1C(=O)N(C)CC1(CO)CCC1	23	12
63	CCOC(=O)CCCSc1nnc(NC(=O)c2ccc(Cl)cc2Cl)s1	12	14
64	CC1CC(N2CCCN(C(=O)Oc3ccccc3)CC2)C(=O)O1 (stereo not given)	1	1
65	OCCN(Cc1nc(-c2cnccn2)no1)CC12CC3CC(CC(C3)C1)C2	2	3
66	Cc1cccnc1C(NC(=O)C1CCN(Cc2c[nH]c3ccccc23)CC1)c1ccc(Cl)cc1 (stereo not given)	-1	1
67	CN(C)P(=NC(=S)N1CCN(c2ccccc2)CC1)(N(C)C)C12CC3CC(CC(C3)C1)C2	10	5
68	COCC1CCCN(C(=O)c2ccc(N3CCCCCCC3)nc2)C1 (stereo not given)	0	-3
69	CC1(C)CC2CC(C)(CN2C(=O)c2cc3n(n2)CCN(Cc2cccc(C(F)(F)F)c2)C3=O)C1 (stereo not given)	15	21
70	COc1cc(Cl)c(C(=O)N2CCOC(COCc3c(Cl)cccc3Cl)C2)cc1OC (stereo not given)	14	7
71	CNCC(=O)N1CCOc2c(O)cc(-c3cccnc3)cc2C1	0	9
72	Cc1cc(C)n2ncc(CN3CCCC3c3nc(-c4ccncc4)no3)c2n1 (stereo not given)	-1	3
73	O=C(NCCc1ccccc1)C1CCC(=O)N(Cc2cccc(C(F)(F)F)c2)C1 (stereo not given)	3	-1
74	Cc1ccc(COc2ccccc2CNc2nn[nH]n2)cc1	-11	-16
75	O=C(c1ccncc1)N1CCN(C(=O)C2CC2)CC1	4	2
76	Cc1cnc(C(=O)N2CCc3ccc(NC(=O)Cc4ccccc4F)cc3C2)cn1	9	3
77	COC(=O)C1=C(C)NC2=C(C(=O)CCC2)C1c1cccc([N+](=O)[O-])c1 (stereo not given)	0	-6
78	C=C(C)Cn1c(CCNC(=O)c2ccco2)nc2ccccc21	1	-7
79	COc1cc(C(=O)N2CCC(CCn3cccn3)CC2)ccc1O	6	6
80	Cc1nnnn1CCCN1CCCC1c1nc2ccc(F)cc2[nH]1 (stereo not given)	0	-4
81	Fc1ccc(CN(C2=NCCN2)c2c(Cl)cccc2Cl)cc1	-4	-13
82	CCCc1cnc(C)nc1N1CCN(Cc2cc(C(C)(C)C)n[nH]2)CC1	19	12
83	CN(C)C(CNS(=O)(=O)Cc1ccc(Cl)cc1)c1ccsc1 (stereo not given)	11	2
84	COC(=O)c1sc(NC(=O)c2c(-c3ccccc3Cl)noc2C)c(C#N)c1C	16	16
85	COC(=O)C1=C(C)NC(C)=C(C(=O)OC)C1c1ccc(C)o1	10	9
86	CCN(CC)S(=O)(=O)c1ccc(C(=O)Nc2ncnc3sccc23)cc1	-19	-24
87	COC(=O)c1cc(NC(=O)c2ccc(Cl)cc2N2CCCC2=O)c(F)cc1F	8	4
88	CC1CCN(Cc2nnnn2CC(=O)N2CCN(c3ccccn3)CC2)CC1	14	2
89	Cc1cc(CN2CCN(C(=O)NCc3c(C)noc3C)CC2)no1	10	8
90	Cc1cc(C)c2c(N)csc2n1	0	2
91	Cc1nn(-c2ccccc2)c(C)c1C(=O)OC(C)C(=O)NC1CCCCC1C (stereo not given)	21	16
92	CCOC(=O)C1(Cc2ccc(Cl)cc2)CCN(Cc2cccc3nonc23)CC1	2&3	-3&2
93	Cc1ccccc1CN1CCN(c2ccc(Oc3ccccc3)cc2)C(=O)C1C (stereo not given)	1	6
94	Cc1ccccc1Cn1c(=O)c2c(nc3n2CC(C)CN3CCc2ccccc2)n(C)c1=O (stereo not given)	1	3
95	Cc1ccc2nc(CN3C(=O)NC4(CCCC4)C3=O)cn2c1	7	3
96	O=C1CCC(C(=O)OCc2ccc(Br)cc2)=NN1	-3	-8
97	Cc1ccc(-c2nc3scc(CCNS(=O)(=O)c4ccc5c(c4)OCCO5)n3n2)cc1	-6	-5
98	COC(=O)c1ccc(CSc2nc(=O)n3cc(C)ccc3n2)cc1	4	2
99	Cc1nnc2c(C(=O)NC3CCC(C)CC3)cccn12 (stereo not given)	-7	-14
100	O=c1oc2c(Cl)cc(Cl)cc2cc1-c1csc(Nc2cccc(F)c2)n1	-5	-9

Additional entries:
no.	compound	NPYLR7 ag	NPYLR7 ag max-min
101	O=C(CSc1ccc2nnc(CCNC(=O)c3ccccc3)n2n1)Nc1ccc2c(c1)OCCO2	-18	-21
102	COC(=O)c1sc(N)c(C(=O)OC)c1COC(=O)C1CC(=O)N(Cc2ccco2)C1 (stereo not given)	27	40
103	CCc1nc(C2CCCN2C(=O)Cn2[nH]c(=O)ccc2=O)no1 (stereo not given)	2	-1
104	Cc1ccc2c(c1)SC(C(=O)N(C)Cc1nc3ccccc3c(=O)[nH]1)C2 (stereo not given)	-4	-2
105	Nc1c(N(CCC2=CCCCC2)C(=O)C=Cc2ccco2)c(=O)[nH]c(=O)n1Cc1ccccc1	0	-1
106	Cc1c(CN2CCC3(CCCN(Cc4cccc(F)c4F)C3)C2)cnn1C (stereo not given)	4	1
107	CN1CCN2CCN(C(=O)C3(C)CCNCC3)CC2C1 (stereo not given)	9	6
108	CN(Cc1ccccc1)c1ncccc1CNC(=O)C1COC(=O)N1 (stereo not given)	-1	-2
109	O=C1c2cccc([N+](=O)[O-])c2C(=O)N1CN(C(=O)C(F)(F)F)c1ccccc1	9	9
110	CCCCCc1ccc(C(=O)N2CCN(C(=O)CSc3nnc(-c4ccccc4Cl)n3-c3ccccc3)CC2C)cc1 (stereo not given)	0	11
111	CC(=O)Oc1ccc(CN2C(=O)C(Cc3ccccc3)ON=C2C2CCCC2)cc1 (stereo not given)	5	4
112	CCOc1ccc(C(=O)Nc2cc(-c3nc4ccccc4o3)ccc2C)cc1	0	-6
113	CC1(C(=O)NS(C)(=O)=O)CCN1C(=O)C1(c2ccc(Cl)cc2)CC1 (stereo not given)	5	4
114	Cc1ccc(N2CCCC2)c(C(=O)N(C)CCC2CCCCC2)c1	4	3
115	CN(CC1CCN(CCc2ccccc2F)CC1)C(=O)c1cn(C)c2ccccc12	6	5
